HPGD block – inhibitors of human 15-hydroxyprostaglandin dehydrogenase (HPGD). 150,000 compounds, 4.3% hits. Potency, µM, without a hit: at the highest dose activity change, negative = inhibition, actives largely listed as inhibitors. P15428. purified HPGD, NADH fluorescence kinetic, PGE2 substrate; active = well fitted inhibition curve with a large enough effect (not every such curve was filed as active); inconclusive = small, poorly fitted or top-dose-only effect, or another doubt; inactive = no such curve, though single readings can be large or run the other way;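 further: top concentration of the series not given in the record; plate controls included wells without enzyme; inactives centre near -10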
Target sequence (P15428 whole entry, looked up): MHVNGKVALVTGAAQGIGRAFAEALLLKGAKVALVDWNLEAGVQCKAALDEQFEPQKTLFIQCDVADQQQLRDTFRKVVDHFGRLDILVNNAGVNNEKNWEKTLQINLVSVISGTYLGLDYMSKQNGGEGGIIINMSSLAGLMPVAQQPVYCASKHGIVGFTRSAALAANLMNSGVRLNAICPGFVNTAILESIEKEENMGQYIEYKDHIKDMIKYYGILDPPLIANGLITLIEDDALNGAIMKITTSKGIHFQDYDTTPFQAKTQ
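NADH formation kinetics: reaction with 30 uM PGE2 and 1 mM NAD+ (final), 20 nM enzyme, Tris-HCl pH 8 with Tween 20, after 15 min compound preincubation at room temperature. Fluorescence change, last versus first of five reads.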
The depositor's hits bear a star. On the % scale 0 is the no-effect control and ±100 the full control effect; potency means the concentration at half of the fitted maximal effect. This is a subset; the hit share may differ from the screen's.

How did CCOC(=O)c1c(C)nc(SCC(N)=O)c(C#N)c1-c1ccccc1 do in these assays?
HPGD block: 0%

How did COc1ccc2c(CC(=O)NCc3ccc4c(c3)OCO4)coc2c1 do in these assays?
HPGD block: -17%

What do the screens show for `C[C@H]1Cc2c(-c3ccccc3)nc3c(c2CO1)CN(C(=O)c1cc(I)ccc1F)CC3`?
HPGD block: -1%

Results for Cc1cc(C(=O)COc2nncc3ccccc23)c(C)n1C ?
HPGD block: -6%

What do the screens show for `Clc1ccc2c(c1)c1cc(Cl)ccc1n2CN1CCOCC1`?
HPGD block: -23%

How did CC(O)C(=O)O (stereo not drawn) do in these assays?
HPGD block: -3%

Results for Cc1ccc(NC(=S)NNC(=O)c2nn(C)c(C)c2Cl)cc1 ?
HPGD block: -17%

What do the screens show for `COC(=O)C(N)Cc1ccc(Cl)cc1` (stereo not drawn)?
HPGD block: -14%

How did CCOC(=O)N1CCC(N(C(=O)Nc2ccc(CC)cc2)C(C)CC)CC1 (stereo not drawn) do in these assays?
HPGD block: -6%

What do the screens show for `CCCCn1cnc2c(c(CC#N)nn2-c2ccccc2)c1=N`?
HPGD block: -2%

Results for COc1ccccc1NC(=O)C1CCCN1C(=O)NCc1ccccc1 (stereo not drawn) ?
HPGD block: 0%

What do the screens show for `CC(=O)c1ccc(Cc2cnc(N)s2)cc1`?
HPGD block: -1%

Results for O=C(O)C1CC=CCC1C(=O)Nc1ccccc1Cl (stereo not drawn) ?
HPGD block: -13%

Results for CCCCSc1nnc(-c2ccc(C)cc2)o1 ?
HPGD block: -10%

What do the screens show for `Cc1cc(C)n(-c2nc(NCC(C)O)c3c4c(sc3n2)COC(C)(C)C4)n1` (stereo not drawn)?
HPGD block: -26%

No new results follow: an excerpt of the list.
How did COc1ccc2c(CC(=O)NCc3ccc4c(c3)OCO4)coc2c1 do in these assays?
HPGD block: -17%

What do the screens show for `C[C@H]1Cc2c(-c3ccccc3)nc3c(c2CO1)CN(C(=O)c1cc(I)ccc1F)CC3`?
HPGD block: -1%

Results for Cc1cc(C(=O)COc2nncc3ccccc23)c(C)n1C ?
HPGD block: -6%

What do the screens show for `Clc1ccc2c(c1)c1cc(Cl)ccc1n2CN1CCOCC1`?
HPGD block: -23%

How did CC(O)C(=O)O (stereo not drawn) do in these assays?
HPGD block: -3%

Results for Cc1ccc(NC(=S)NNC(=O)c2nn(C)c(C)c2Cl)cc1 ?
HPGD block: -17%

What do the screens show for `COC(=O)C(N)Cc1ccc(Cl)cc1` (stereo not drawn)?
HPGD block: -14%

How did CCOC(=O)N1CCC(N(C(=O)Nc2ccc(CC)cc2)C(C)CC)CC1 (stereo not drawn) do in these assays?
HPGD block: -6%

What do the screens show for `CCCCn1cnc2c(c(CC#N)nn2-c2ccccc2)c1=N`?
HPGD block: -2%

Results for COc1ccccc1NC(=O)C1CCCN1C(=O)NCc1ccccc1 (stereo not drawn) ?
HPGD block: 0%

What do the screens show for `CC(=O)c1ccc(Cc2cnc(N)s2)cc1`?
HPGD block: -1%

Results for O=C(O)C1CC=CCC1C(=O)Nc1ccccc1Cl (stereo not drawn) ?
HPGD block: -13%

Results for CCCCSc1nnc(-c2ccc(C)cc2)o1 ?
HPGD block: -10%

What do the screens show for `Cc1cc(C)n(-c2nc(NCC(C)O)c3c4c(sc3n2)COC(C)(C)C4)n1` (stereo not drawn)?
HPGD block: -26%

(further entries)
Results for O=C(CCc1nc2ccccc2s1)N1CCN(S(=O)(=O)c2cccs2)CC1 ?
HPGD block: -13%

How did CC(=O)[C@@]1(O)CC[C@H]2C3CCC4=CC(=O)CC[C@]4(C)C3CC[C@@]21C (stereo partly drawn) do in these assays?
HPGD block: -13%

Results for CCOC(NC(=O)c1ccccc1)C(NC(=O)c1ccccc1)OCC (stereo not drawn) ?
HPGD block: -4%

Results for CC(Oc1ccc(Cl)cc1)C(=O)OCC(=O)Nc1ncc(Cl)cc1Cl (stereo not drawn) ?
HPGD block: -13%

How did CC(=O)C1=C(O)C(=O)N(Cc2cccnc2)C1c1ccc(Cl)cc1 (stereo not drawn) do in these assays?
HPGD block: -15%

Results for CCCN1Cc2cccc(C(=O)Nc3cc(OC)cc(OC)c3)c2C1=O ?
HPGD block: -8%

What do the screens show for `Cc1ccc(-c2noc(CSc3nnnn3-c3ccccc3)n2)cc1`?
HPGD block: -28%

Results for CC1CCCCC1NC(=O)CCCc1nc2ccccc2c(=O)[nH]1 (stereo not drawn) ?
HPGD block: -7%

How did O=C(c1cccs1)N1CCN(Cc2ccc3c(c2)OCO3)CC1 do in these assays?
HPGD block: -2%

What do the screens show for `NC(=O)C1(N2CCCCC2)CCN(C(=O)c2ccc(-n3cnnn3)cc2)CC1`?
HPGD block: -18%

How did CC(C)(C)CC(C)(C)NC(=O)CSCC(=O)Nc1ccc2ccccc2c1 do in these assays?
HPGD block: inconclusive

How did O=C(NCc1cccs1)c1nc2c(nnn2Cc2ccc(F)cc2)c(=O)[nH]1 do in these assays?
HPGD block: 14µM*

Results for CCCCNC(=O)CS(=O)Cc1nc(-c2cccc(Cl)c2)oc1C (stereo not drawn) ?
HPGD block: -19%

How did CCOC(=O)Nc1ccc2c(c1)N(C(=O)CCN1CCN(CCO)CC1)c1ccccc1CC2 do in these assays?
HPGD block: -12%

Results for CCn1c(CNC(=O)c2cccc(C)c2)nc2ccccc21 ?
HPGD block: -9%

Results for N=c1c2c(-c3ccccc3)c(-c3ccccc3)n(Cc3ccco3)c2ncn1Cc1ccccc1 ?
HPGD block: -25%

What do the screens show for `COc1cc(Cl)c(C)cc1NC(=O)CSc1nnc(-c2ccccn2)n1Cc1ccco1`?
HPGD block: -2%

What do the screens show for `COC(=O)c1cc(C(=O)OCC(=O)Nc2ccccc2OC(F)F)cc([N+](=O)[O-])c1`?
HPGD block: -18%

How did Cn1ncc(N=Cc2ccccc2O)c1C(=O)Nc1ccccc1 do in these assays?
HPGD block: -16%

What do the screens show for `O=C(Nc1nc(-c2cccs2)cs1)c1ccc(S(=O)(=O)N2CCCC2)cc1`?
HPGD block: -13%

How did COC(=O)c1ccc(-c2nc3cc(Cl)c(N)cc3s2)cc1 do in these assays?
HPGD block: -20%

What do the screens show for `CCC1CCCCN1C(=O)COC(=O)c1ccc(S(=O)(=O)N2CCOCC2)cc1` (stereo not drawn)?
HPGD block: -9%

What do the screens show for `Cc1ccc(S(=O)(=O)Nc2ccc(S(=O)(=O)N3CCCC3)cc2)cc1`?
HPGD block: -11%

What do the screens show for `CC(C)Oc1cccc(-c2cc(C(=O)N3CCN(c4ncccn4)CC3)c3ccccc3n2)c1`?
HPGD block: inconclusive

What do the screens show for `Cc1ccc(OCCSc2nnc(-c3cccs3)n2C)cc1`?
HPGD block: -1%

What do the screens show for `COc1ccc(CCn2c(Br)nc3c2c(=O)[nH]c(=O)n3C)cc1`?
HPGD block: 13µM*

How did Cc1cc(=O)oc2cc(OCC(=O)OCC(=O)N3CCc4ccccc43)ccc12 do in these assays?
HPGD block: inconclusive

What do the screens show for `O=C(O)C(Cc1ccccc1)N1Cc2ccccc2C1=O` (stereo not drawn)?
HPGD block: -10%

Results for COc1ccc(NC(=O)CSc2nc3ccccc3cc2Cc2ccccc2)cc1 ?
HPGD block: -18%

What do the screens show for `COC(=O)C1CC(=O)c2sccc2C1` (stereo not drawn)?
HPGD block: -17%

How did Cc1ccc(S(=O)(=O)N2CCN(C)CC2)cc1[N+](=O)[O-] do in these assays?
HPGD block: -14%

What do the screens show for `Cc1cc(/C=N/NC(N)=S)c(C)n1-c1ccc(Cl)c(Cl)c1`?
HPGD block: inconclusive

Results for O=S(=O)(NCCSc1nnnn1-c1ccccc1)c1cccs1 ?
HPGD block: -10%

Results for O=C(CCNC(=O)c1ccc(Cl)cc1)Nc1ccc(Cl)cc1F ?
HPGD block: -9%

Results for CCc1nnc(NC(=O)CSc2nnc(CNc3cccc(C)c3)n2-c2ccccc2)s1 ?
HPGD block: -7%

What do the screens show for `COc1ccc(NC(=O)CSc2nc3nc(-c4cccs4)cc(C(F)(F)F)c3c(=O)[nH]2)c(OC)c1`?
HPGD block: -20%

What do the screens show for `O=C(Nc1cccnc1)c1cc2c(ccc3ccccc32)o1`?
HPGD block: inconclusive

What do the screens show for `CC(C)c1nc2oc3c(NCC4CCCO4)ncnc3c2c2c1CCC2` (stereo not drawn)?
HPGD block: inconclusive

How did NNC(=O)Cc1cn(-c2ncc(C(F)(F)F)cc2Cl)c2ccccc12 do in these assays?
HPGD block: -14%

How did CC(C)(C)c1cccc(/C=N/O)c1O do in these assays?
HPGD block: -12%

What do the screens show for `CC1CC(C)CN(CC(=O)Nc2ccc3c(c2)OCCO3)C1` (stereo not drawn)?
HPGD block: -3%

What do the screens show for `COc1ccc2c(c1)cc1n2CCN2CCCN=C12`?
HPGD block: inconclusive

How did COc1ccc(-c2noc(COc3ccc4c(c3)OCO4)n2)cc1 do in these assays?
HPGD block: -11%

How did COc1ccc(CN(C(=O)CNC(=O)c2ccco2)C(C(=O)NC2CCCC2)c2ccco2)cc1 (stereo not drawn) do in these assays?
HPGD block: -1%

Results for O=C(CSCc1cnn(-c2ccccc2)c1-n1cccc1)N1CCN(Cc2ccccc2)CC1 ?
HPGD block: -8%

What do the screens show for `Cc1cc(C)c(S(=O)(=O)Nc2cc(SCC(=O)O)c(O)c3ccccc23)cc1C`?
HPGD block: 1.1µM*

Results for COc1ccc(C2C(C(=O)c3sc(C)nc3C)=C(O)C(=O)N2CCN2CCOCC2)cc1 (stereo not drawn) ?
HPGD block: -21%

Results for C=CCSc1nc2c(sc3nc(C)cc(C)c32)c(=O)[nH]1 ?
HPGD block: -30%

How did COC(=O)c1ccc(C(=O)OC)c(NC(=O)COC(=O)c2ccccc2OC)c1 do in these assays?
HPGD block: inconclusive

How did Cc1ccc2c(CC(=O)OCn3nnc4ccccc4c3=O)coc2c1 do in these assays?
HPGD block: -6%

How did Cc1ccc(NC2=Nc3ccccc3CC2)cc1 do in these assays?
HPGD block: 32µM*

What do the screens show for `COc1ccc(Cc2c[nH]c(=O)[nH]c2=O)cc1`?
HPGD block: -4%

How did NCCCC[C@@H]1NC(=O)c2cc([N+](=O)[O-])cc(I)c2SC[C@@H](C(N)=O)NC(=O)[C@H](CCC(N)=O)NC1=O do in these assays?
HPGD block: -1%

Results for COCCN(CCOC)c1nc(S(=O)(=O)c2ccc(C)cc2)c(Cl)s1 ?
HPGD block: -8%

How did COCCOC(=O)C(C#N)c1nc2ccccc2nc1N1CCN(Cc2ccccc2)CC1 (stereo not drawn) do in these assays?
HPGD block: -12%

How did CC(=O)N[C@H](C(=O)O)C(C)(C)SN=O do in these assays?
HPGD block: 5%

How did N#CNC(N)=Nc1cccc(Cl)c1 do in these assays?
HPGD block: -10%

What do the screens show for `COc1ccc(-c2noc(CN3CCOCC3)n2)cc1OC`?
HPGD block: -2%

How did Cn1c(=O)c(C(=O)NC2CCCCCCC2)c(O)c2ccccc21 do in these assays?
HPGD block: -8%

Results for O=C(Nc1ccccc1)c1cc(Cl)nc2ccccc12 ?
HPGD block: -8%

Results for CC(=O)Oc1c(S(=O)(=O)c2ccc(C)cc2)c(C)nn1C(C)(C)C ?
HPGD block: -5%

Results for CCN(CC)N=Nc1ccc(C(=O)O)cc1 ?
HPGD block: -10%

Results for CC1=C(C(=O)OC2CCCCC2)C(c2cccnc2)n2nnnc2N1 (stereo not drawn) ?
HPGD block: -28%

How did C=C(C)Cn1c(SCC(=O)N/N=C/c2c(O)ccc3ccccc23)nc2ccccc2c1=O do in these assays?
HPGD block: -21%

What do the screens show for `CN1CCN(S(=O)(=O)c2ccc(Br)c3nsnc23)CC1`?
HPGD block: -8%

What do the screens show for `Cc1oc(C)c2c(=O)ccc3c(c12)OC(N)=C(C#N)C3c1ccc(F)cc1` (stereo not drawn)?
HPGD block: 25µM*

Results for Cc1nc2ccccn2c1C(=O)NNC(=S)Nc1ccc(Cl)cc1 ?
HPGD block: -20%

Results for COc1ccc2sc3c(=O)[nH]c4ccccc4c3c2c1 ?
HPGD block: -20%

What do the screens show for `CCCCCCCCCCCCC(=O)N1CCCC[C@H]1CNC(=O)[C@@H](N)CCCCN`?
HPGD block: -4%

How did COc1cccc(N=Cc2ccc(O)cc2O)c1 do in these assays?
HPGD block: -16%

Results for Cc1ccccc1NC(=O)c1c(C)nn(-c2ccccc2)c1Cl ?
HPGD block: 28µM*

How did O=C(NC(=S)Nc1ccccc1)c1cc(-c2ccccc2)nc2ccccc12 do in these assays?
HPGD block: 20µM*

How did NC(=O)C1CCN(S(=O)(=O)c2cccc(C(=O)O)c2)CC1 do in these assays?
HPGD block: -1%

How did O=C(NC1CCS(=O)(=O)C1)c1cn(-c2ccccc2)nc1-c1ccccc1 (stereo not drawn) do in these assays?
HPGD block: -8%

How did COC(=O)CC1NCCNC1=O (stereo not drawn) do in these assays?
HPGD block: 0%

Results for COc1ccccc1CNC(=O)C1CCN(S(=O)(=O)c2ccc3c(c2)OCCCO3)CC1 ?
HPGD block: -15%

What do the screens show for `O=C(Nc1ccc2c(c1)CCC2)c1cccc(S(=O)(=O)N2CCN(c3ccc(F)cc3)CC2)c1`?
HPGD block: -16%

What do the screens show for `COc1ccc(N2C(=O)CC(n3cnc4ccccc43)C2=O)cc1` (stereo not drawn)?
HPGD block: -9%

How did COc1ccc(N/N=C(/Oc2ccc([N+](=O)[O-])cc2)C(C)=O)cc1 do in these assays?
HPGD block: -10%

Results for Cc1ccc(Oc2c(C=O)c3ccccc3n2C)cc1 ?
HPGD block: -7%

How did Cc1ccc(S(=O)(=O)N[C@H](C(=O)OCC(=O)N2N=C(c3ccc(Cl)cc3)CC2c2ccco2)C(C)C)cc1 (stereo partly drawn) do in these assays?
HPGD block: -26%

What do the screens show for `CNc1ccc([N+](=O)[O-])cc1`?
HPGD block: -15%

What do the screens show for `COC(=O)c1cn(CCOc2ccccc2OC)c2ccccc12`?
HPGD block: -22%

Source: PubChem
